# From PubChem BioAssay
# CBX7 AlphaScr: blocks human CBX7 binding to H3K27me3 peptide | normalised signal (fraction of DMSO) (no concentration beside the values) | O95931 | AlphaScreen His6-CBX7 / biotin-H3K27me3 peptide binding; stronger effect = lower value | hit rate 1.1% among 66,000 | AID 1224903; in the data active means normalised signal below about 0.5;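 further: 100 nL library stock added to about 20 µL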
# Target sequence (O95931 whole entry, looked up): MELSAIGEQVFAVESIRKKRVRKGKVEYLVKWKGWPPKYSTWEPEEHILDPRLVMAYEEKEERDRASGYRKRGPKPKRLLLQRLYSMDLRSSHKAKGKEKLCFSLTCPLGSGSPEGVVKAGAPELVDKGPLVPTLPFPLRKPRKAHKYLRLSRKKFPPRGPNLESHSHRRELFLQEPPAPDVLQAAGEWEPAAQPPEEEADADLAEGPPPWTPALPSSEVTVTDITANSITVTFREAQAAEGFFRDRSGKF
# CBX7 AlphaScr z-score: further read-out of CBX7 AlphaScr, marked with its call; z-score; measured here: z-score of CBX7 signal; some inactives read as strong as hits; reference of the scale not given here;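 same signal on another scale; lower means less binding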
# * = called active by the depositor; & = joins results of further samples. A portion of the library; count on the stated rates, not on these rows.
SMILES,CBX7 AlphaScr,CBX7 AlphaScr z-score
N#Cc1nc(COc2ccccc2Cl)oc1N1CCC(C(N)=O)CC1,1.02,0.892
O=C(CCn1nc(-c2ccc(Cl)cc2)ccc1=O)NCC1CCCO1 (configuration not stated),0.919,-0.96
Cc1cc(N2CCN(C)CC2)nc2ccc(NC(=O)CCC3CCCC3)cc12,0.983,-0.634
Clc1ccc(SCc2cn3cccnc3n2)cc1,0.829,-0.674
CC(CCc1ccccc1)NC(=O)CN1CCN(Cc2ccc(F)cc2Cl)C1=O (configuration not stated),0.922,-1.07
CN(C)CCNC(=O)c1cnc(N2CCN(c3ncccn3)CC2)c2ccccc12,0.931,-0.428
COc1ccc(C2(CNC(=O)C(c3ccccc3)c3ccccc3)CCOCC2)cc1,1,0.0696
CCCNC(=O)Cn1cnc2sc(C(=O)NCCC3=CCCCC3)c(C)c2c1=O,1.01,0.142
Cc1onc(-c2ccccc2)c1C(=O)Nc1ccccc1I,1.06,1.25
Cc1ccc(CC2C(=O)N(c3ccc4ccccc4n3)C(=O)C2C)cc1 (configuration not stated),0.999,-0.0208
COc1ccc(CCNc2nc(SCC(=O)NC3CCCCC3)nc3ccccc23)cc1OC,1.03,1.67
CCc1ccc(-c2csc(Nc3cc(OC)c(Cl)cc3OC)n2)cc1,0.661&0.5,-5.29&-18.8
O=C(CN1C(=O)CSc2ccc(S(=O)(=O)N3CCCCCC3)cc21)NC1CCCCCC1,0.959,-1.24
Cc1ccc(C(=O)Nc2ccccc2NC(=O)c2c(-c3ccccc3Cl)noc2C)cc1,0.991,-0.305
COc1cccc(CNC(=O)CCc2nc(-c3ccccc3F)no2)c1,1.05,0.519
O=C(Nc1c(C(=O)Nc2cccc3ccccc23)cnn1-c1ccccc1)c1ccccc1F,1.01,0.208
Cc1nn(C)c(C)c1S(=O)(=O)N(CC(=O)NCc1cccnc1)c1ccc(C(C)C)cc1,0.97,-0.475
CC(CCc1ccccc1)NC(=O)CCNS(=O)(=O)c1ccc2c(c1)CCC(=O)N2 (configuration not stated),1.08,1.65
Cc1ccc(C(=O)Nc2ccc(Br)cc2)cc1S(=O)(=O)Nc1ccccn1,1.15,3.34
Cc1ccc(C)c(NC(=O)Cn2nnc(-c3ccccc3Cl)n2)c1,1.07,0.102

# The list goes on; the last 2 above are carried over.
SMILES,CBX7 AlphaScr,CBX7 AlphaScr z-score
Cc1ccc(C(=O)Nc2ccc(Br)cc2)cc1S(=O)(=O)Nc1ccccn1,1.15,3.34
Cc1ccc(C)c(NC(=O)Cn2nnc(-c3ccccc3Cl)n2)c1,1.07,0.102
CC(C)Oc1ccc(C(=O)Nc2c(C(=O)c3ccc(Cl)cc3)oc3ccccc23)cc1,0.927,-1.01
COc1ccc(Nc2nc(-c3c(C)nc4ccccn34)cs2)cc1,0.54,-0.543
CCc1cc2c(=O)c(-c3ccc4c(c3)OCCO4)c(C)oc2cc1OCC(=O)O,1.04,0.361
CCOc1ccc2nc(NC(=O)C3CCN(S(=O)(=O)c4cnc[nH]4)CC3)sc2c1,0.993,-0.242
CC(C)n1c(CNC(=O)c2ccccc2)nc2ccccc21,1.01,0.211
COc1ccc(CCNC(=O)c2cc3c(s2)CSC3)cc1OC,1.01,0.153
COc1ccc(Cn2c(CCC(=O)Nc3ccc(C)c(C)c3)nc3cccnc32)cc1,0.984,-0.66
O=C(Nc1nc(-c2ccccn2)cs1)c1ccc(S(=O)(=O)N2CCOCC2)cc1,0*,-18.2*
COc1ccc(CNC(=O)c2ccc3c(c2)N(Cc2ccccc2)C(=O)CS3=O)cc1 (configuration not stated),1.15,2.77
O=C(Cn1ccc2ccccc2c1=O)NCC(=O)Nc1cccc(C(F)(F)F)c1,1.04,1.9
COc1ccc(C(O)C(C)c2nc3ccccc3n2C)cc1 (configuration not stated),1.05,1.49
O=c1c2ccccc2nc(-c2ccccc2F)n1Cc1ccccc1F,1.17,4.48
O=C(NCc1cccnc1)[C@@H](c1ccccc1)N1Cc2ccccc2C1=O,1.01,0.445
COc1ccc(C(=O)CC2(O)C(=O)Nc3ccccc32)c(OC)c1 (configuration not stated),1.01,0.0749
CCC(C)NC(=O)c1cc(C)nn1-c1ccccc1 (configuration not stated),1.17,2.64
CCOC(=O)c1ccc(-n2c(C)nc3ccccc3c2=O)cc1,1.01,0.189
Cc1c(C(=O)NCc2ccccc2)oc2ccc(S(=O)(=O)N3CCCCCC3)cc12,0.982,-0.318
COC(=O)c1cc2sc(Cl)cc2n1CC(=O)Nc1ccc(C)cc1C,1.02,0.56
O=C(CSCc1cnn(-c2ccccc2)c1-n1cccc1)NCc1ccccc1,1.02,0.965
Cn1c(=O)c(=O)n(C)c2cc(S(=O)(=O)N3CCN(c4ccccc4)CC3)ccc21,1.05,0.364
Cc1ccccc1C(=O)Nc1ccc2nc(N3CCCCC3)cc(C)c2c1,0.93,-1.27
CCCN(CCC)CCNC(=O)CS(=O)(=O)Cc1nc(-c2ccccc2F)oc1C,0.961,-0.74
Cc1cc(NC(=O)c2ccccc2Cl)ccc1NC(=O)c1ccccc1,0.909,-0.663
COc1ccccc1NC(=O)c1c(NCc2cccc(OC)c2OC)sc2c1CCC2,1.02,0.169
O=C(O)CCC(=O)N1CCN(c2nc(-c3ccccc3Cl)c3cc(Br)ccc3n2)CC1,1.04,0.557
O=S(=O)(c1ccc(-c2cn3ccccc3n2)cc1)N1CCCCC1,1.04,0.142
Cc1ccc(OCC(=O)Nc2nc(-c3ccccc3)cs2)c(Br)c1,1.09,0.158
CCOC(=O)c1c(NC(=O)c2cccc(Br)c2)sc(C)c1C,1.63,5.35
Cc1oc(-c2ccccc2F)nc1CN1CCC(C(=O)NC(C)CCc2ccccc2)CC1 (configuration not stated),1.14,1.64
CCc1ccc(-c2nc(CN3CCCC(C(=O)NC4CCCC(C)C4C)C3)c(C)o2)cc1 (configuration not stated),0.971,-0.805
CC1CCN(S(=O)(=O)c2ccc3c(c2)N(CC(=O)NC2CCCc4ccccc42)C(=O)CO3)CC1 (configuration not stated),1.04,1.01
O=c1cc(Cc2nnc(SCc3ccc(F)cc3)n2-c2ccc(F)cc2)[nH]c(=O)[nH]1,1.06,1.53
CCc1ccc(NC(=O)CC(C)(C)CC2=NS(=O)(=O)c3ccccc3N2)cc1,1.02,0.918
CC(C)(C)c1ccc(C(=O)Nc2nnc(-c3cccs3)s2)cc1,1.07,1.15
Cn1cnnc1SCC(=O)Nc1ccc(Cl)cc1,1.1,0.207
Oc1ccccc1-c1cc(-c2ccccc2)no1,1.08,2
COc1ccc(OC)c(CNC(=O)c2cc(=O)[nH]c3ccc(S(=O)(=O)N4CCCCC4C)cc23)c1 (configuration not stated),0.977,-1.13
COc1ccc2[nH]cc(S(=O)(=O)c3ccc(C)cc3)c(=O)c2c1,1.64,2.78
COc1ccccc1-n1nc(C(=O)N2CCN(c3ccccc3)CC2)c2ccccc2c1=O,1,0.0703
Cc1ccc(CN2C(=O)C(C(C)C(=O)NCc3ccc(F)cc3)Sc3ccccc32)cc1 (configuration not stated),1.11,1.79

# Some of the entries so far, as tab-separated lines:
Structure	CBX7 AlphaScr	CBX7 AlphaScr z-score
COc1ccccc1-n1nc(C(=O)N2CCN(c3ccccc3)CC2)c2ccccc2c1=O	1	0.0703
COc1ccc2[nH]cc(S(=O)(=O)c3ccc(C)cc3)c(=O)c2c1	1.64	2.78
O=S(=O)(c1ccc(-c2cn3ccccc3n2)cc1)N1CCCCC1	1.04	0.142
CCCN(CCC)CCNC(=O)CS(=O)(=O)Cc1nc(-c2ccccc2F)oc1C	0.961	-0.74
O=C(O)CCC(=O)N1CCN(c2nc(-c3ccccc3Cl)c3cc(Br)ccc3n2)CC1	1.04	0.557
CCOC(=O)c1c(NC(=O)c2cccc(Br)c2)sc(C)c1C	1.63	5.35

# (continued)
SMILES,CBX7 AlphaScr,CBX7 AlphaScr z-score
Cc1noc(C)c1S(=O)(=O)Nc1ccc(C(C)C)cc1,1.03,1.18
c1ccc(Nc2nc(-c3ccccc3)nc3ccccc23)cc1,1.05,0.677
CC12CC3CC(C)(C1)CC(OCCNC(=O)Cn1ncc4c1-c1ccccc1OC4)(C3)C2,1.04,0.617
CCC(Cc1ccccc1)NC(=O)C1CCN(c2nnc(-n3cccc3)s2)CC1 (configuration not stated),0.903,-1.02
COc1ccc(S(=O)(=O)NCCc2cc3c(OC)ccc(OC)c3[nH]c2=O)cc1,0.86,-1.81
CCCCNC(=O)c1ccc2c(c1)N(CC)C(=O)c1ccccc1S2(=O)=O,1.03,0.775
CCCCCn1c(C(C)NC(=O)COC)nc2ccccc21 (configuration not stated),0.956,-1.18
CCN(CC)c1cc(C)c2cc(NC(=O)COc3cccc(C)c3)ccc2n1,1.13,1.46
CCC(C(=O)Nc1ccccc1F)n1c(SCc2ccccc2F)nc2ccncc21 (configuration not stated),1.04,1.33
COc1ccc(C(=O)NCc2nnc(SCC(=O)N3CCCCC3)o2)cc1OC,1.02,0.513
CCc1ccc(-c2nc(CSCC(=O)NC3CC3)c(C)o2)cc1,1.07,0.449
Cc1cccc(CCNC(=O)CCc2c(C)nc3c(-c4ccccc4)c(C)nn3c2C)c1,1.02,0.534
CCN(CCCNC(=O)CC(C(=O)N1CCc2ccccc21)n1ccnc1)c1ccccc1 (configuration not stated),0.887,-4.4
O=c1[nH]c2ccccc2c(=O)n2nccc12,1.01,0.115
CCC(CO)NS(=O)(=O)c1cc(-c2n[nH]c(=O)c3ccccc23)ccc1C (configuration not stated),1.01,0.163
Cc1c(Br)c(C(=O)Nc2nc3ccccc3n2CCN2CCCCC2)nn1C,0.894,-2.67
O=C1CC(N2CCN(C(c3ccccc3)c3ccccc3)CC2)C(=O)N1c1ccc(F)cc1 (configuration not stated),1.03,0.503
CCOC(=O)C1CCCN(S(=O)(=O)c2ccc3c(c2)CC(=O)N3)C1 (configuration not stated),0.913,-1.57
Cc1cc(=O)n2nc(N3CCCC(C(=O)NC4CCCCC4C)C3)sc2n1 (configuration not stated),0.573,-3.25
Cc1ccc(C)c2[nH]c(=O)c(CCNC(=O)c3ccc(Br)cc3)cc12,1.03,0.67
c1ccc(Cc2ccc(Oc3ncnc4sc(-c5ccccc5)cc34)cc2)cc1,1.26,0.302
O=C1CC(N2CCC(O)CC2)C(=O)N1c1ccc(Br)cc1 (configuration not stated),1.01,0.0942
Cn1c(SCc2ccccc2)nnc1-c1c[nH]c2ccccc12,0.953,-0.818
Cc1cc(C)c2nc(C)cc(Nc3cccc(C(=O)O)c3)c2c1,1.02,0.458
O=C(CC1(O)C(=O)Nc2ccc(Br)cc21)c1ccc(Cl)cc1 (configuration not stated),1.04,0.18
O=C(NCC1CCCO1)c1cc2n(n1)C(C(F)(F)F)CC(c1ccc(F)cc1)N2 (configuration not stated),1.19,2.25
CCc1nnc(NC(=O)CSc2nnc(Cc3cc(=O)[nH]c(=O)[nH]3)n2-c2ccc(F)cc2)s1,1.01,0.372
Cc1nnc(Sc2cc(C(=O)N3CCC4(CC3)OCCO4)c3ccccc3n2)s1,1.13,2.16
O=C(c1ccc2c(c1)N(Cc1ccccc1F)C(=O)c1ccccc1S2=O)N1CCCC1 (configuration not stated),0.954,-1.2
CC(NS(=O)(=O)c1ccc(Cl)cc1)C(c1cccs1)N1CCN(C)CC1 (configuration not stated),1.05,1.13
CCOC(=O)N1CCN(C(=O)Cn2ncc3c2-c2cc(C)ccc2OC3)CC1,0.998,-0.0595
COc1cc(NC(=O)c2nccnc2C(=O)O)cc(OC)c1,0.724,-3.55
CCOc1ccc2nc(NC(=O)c3cc4c(s3)-c3c(C)cccc3OC4)sc2c1,1.04,1.17
Cc1ccccc1C1CC(c2ccc(F)cc2)Nc2nnnn21 (configuration not stated),0.928,-1.01
CC(=O)Nc1ccccc1-c1nc2ccc(C(=O)N3CCN(c4ccccn4)CC3)cc2[nH]c1=O,1.04,0.847
O=c1cc(Nc2ccc3c(c2)OCCO3)[nH]c(=O)n1Cc1ccc(F)cc1,0.941,-1.13
CCOc1ccc(-c2cn(-c3cccc(C)c3)c(=O)[nH]2)cc1Cl,0.918,-1.96
CC(=O)N1CCc2cc(S(=O)(=O)NCCC(=O)O)ccc21,1.22,2.77
Cc1ccc(C)c2[nH]c(=O)c(CCNC(=O)CC(C)C)cc12,1.14,0.937
CCc1ccc(-c2cc(C(=O)Nc3ccc(F)c(F)c3)c3ccccc3n2)cc1,1.21,4.76

# Entries of single compounds, looked up by structure.
# Cc1cc(C)c2nc(C)cc(Nc3cccc(C(=O)O)c3)c2c1 is listed as CBX7 AlphaScr: 1.02; CBX7 AlphaScr z-score: 0.458
# Cn1c(SCc2ccccc2)nnc1-c1c[nH]c2ccccc12 is listed as CBX7 AlphaScr: 0.953; CBX7 AlphaScr z-score: -0.818

# Next section
SMILES,CBX7 AlphaScr,CBX7 AlphaScr z-score
CCC(C(=O)NCCCN1CCc2ccccc2C1)n1ncc2ccccc21 (configuration not stated),1.01,0.275
CCOC(=O)c1c(C)n(CCOc2ccc(C)cc2)c2ccc(O)cc12,1.01,0.171
CCN1CCCC1CNC(=O)c1n[nH]c(=O)c2ccccc12 (configuration not stated),1.04,0.954
O=C(c1ccc2c(c1)N(Cc1ccc(Cl)cc1)C(=O)CS2)N1CCC2(CC1)OCCO2,0.928,-1.55
Cc1ccc2c(c1)N(CCC(=O)NC1CCCC1)C(=O)CO2,1.13,2.19
Cc1ccc(C)c(NS(=O)(=O)c2ccc3c(c2)n(C)c(=O)c(=O)n3C)c1,1.1,0.712
Cc1ccccc1OCc1nc(C#N)c(NCc2ccccc2Cl)o1,0.709,-3.69
Cn1c(COc2ccc(F)cc2)nc2ccccc21,1,0.00746
COc1ccc(C(=O)Nc2cc(-c3nc4cc(C)cc(C)c4o3)ccc2C)cc1,1.03,1.2
Cc1ccc(NC(=O)c2cc3c(s2)-c2ccccc2OC3)c(Cl)c1,1.1,2.32
Cc1nccc2[nH]c(=O)c(C(=O)NC3CCCCC3C)cc12 (configuration not stated),0.967,-0.208
Cc1cccc(Cn2c(=O)cc(C(=O)NCCC(C)C)c3ccccc32)c1,0.974,-0.215
CCC1Oc2ccccc2N(Cc2ccc(F)cc2Cl)C1=O (configuration not stated),1.09,1.1
